NPYLR7 agonist: mosquito NPYLR7 agonism. HEK293T NPYLR7/Galpha15, GCaMP6s calcium fluorescence. activation, % at 10 µM. 0.15% of 270,000 active. AID 1259423; in the data active = activation above about 40%;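 note: 0% = vehicle and 100% = reference agonist at the receptor; some compounds past the cut are filed as inactive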
NPYLR7 agonist max-min: recorded beside NPYLR7 agonist, whose call it bears; activation, %; measured here: Max-Min RFU normalised activation; some inactives read as strong as hits;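 span of the calcium signal over five minutes; 0% = vehicle and 100% = native peptide agonist; compound fluorescence can raise it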
The depositor's hits bear a star; & = joins results of further samples.

SMILES	NPYLR7 agonist	NPYLR7 agonist max-min
CC(=NNC(=O)c1cc(-c2ccncc2)nc2ccccc12)c1cc(Cl)cc(Cl)c1O	7	3
Cc1cccnc1NC(=O)c1ccc(=O)n(Cc2ccc(Cl)cc2)c1	0	-3
CC(C)(O)C#Cc1ccc(C(=O)N(Cc2ccsc2)CC2CCCO2)o1 (stereo not drawn)	-10	-11
COc1ccc(OCc2noc(CN3CCOCC3C)n2)cc1 (stereo not drawn)	4	2
Cc1c(C(=O)N2CCN(C(=O)c3cccc(F)c3)CC2)cc(-c2ccccc2)n1-c1ccc(F)cc1F	-11	-2
CCOC(=O)c1ccc(N=c2oc3ccc(Cl)cc3cc2C(N)=O)cc1	-8	-13
O=C(Nc1ccc(Cl)cc1Cl)N1CCC2(CC1)SCCN2C(=O)c1ccc(Cl)cc1	5	4
CCCCS(=O)(=O)N1CCN(c2ccc(-n3ccc(C)n3)nn2)CC1	-3	-5
Cc1cc(C)cc(OCCN2CCN(S(C)(=O)=O)CC2)c1	6	4
CC1CCN(c2nc3c(c(=O)n(C)c(=O)n3C)n2CCSc2nc3ccccc3o2)CC1	1	37
CCCCn1c(=O)c2c(nc3n2CCN3c2ccc(CC)cc2)n(C)c1=O	2	3
COCCN(CC(=O)N1CCc2sccc2C1COc1ccc(Cl)cc1)C(=O)c1cccs1 (stereo not drawn)	18	18
O=C1NCC2(CCCN(C(=O)Cc3cccnc3)CC2)O1 (stereo not drawn)	8	5
COc1ccc(OCC(=O)N2CCOC(c3ccccc3)C2)cc1 (stereo not drawn)	-4	-9
O=C1N(Cc2ccccn2)C(=O)C2(CCN(Cc3c(F)cccc3Cl)CC2)N1Cc1ccccc1	3	-4
CCCc1nc(C)sc1C(=O)Nc1cccc(C(F)(F)F)c1	7	1
COc1cccc(C(=O)NCC2c3cc(OC)c(OC)cc3CCN2Cc2ccccc2C)c1 (stereo not drawn)	-1	0
OCC(O)Cn1c(SCCOc2ccccc2)nc2ccccc21 (stereo not drawn)	-2	-5
Cc1ccc(NC(=O)c2cc3cc(Br)cc(Br)c3oc2=O)cc1	10	13
O=C(NC(c1ccccc1)c1ccccc1)[C@@H]1CCCN1	5	-2
O=C(NCCCN1CCOCC1)C(C1CCCC1)N1CCN(C(=O)c2ccccc2F)CC1 (stereo not drawn)	-13	-12
Cc1ccc(N(Cc2ccccc2Br)C2C=CS(=O)(=O)C2)cc1C (stereo not drawn)	2	1
Cc1cc(C(=O)NCCC(=O)N2CCN(c3ccccc3)CC2)c(C)o1	2	0
N#Cc1ccc(/C=C/C(=O)Nc2ccc3c(c2)OCO3)cc1	6	3
Cc1cnn(CC2CC2)c1NC(=O)C(C)NC(=O)CC1CCCCC1 (stereo not drawn)	12	8
O=C(CCNC(=O)c1sccc1-c1ccccc1)NC1CCS(=O)(=O)C1 (stereo not drawn)	1	-1
CC(C)N(CC#CCC1(O)c2ccccc2-c2ccccc21)CCO	2	0
COc1ccc(N2C(=O)CN(CCc3cccc(OC)c3)C3CS(=O)(=O)CC32)cc1 (stereo not drawn)	0	0
CCN1C(c2ccccc2)C(C)C(=O)C(C)C1c1ccccc1 (stereo not drawn)	-4	2
O=C(NCc1ccco1)c1ccc(CSc2nnc(-c3cccs3)n2-c2ccc(F)cc2)cc1	-10	2
N#Cc1ccc(OCCNc2ccccc2C(N)=O)cc1	5	3
O=C(CN1CN(c2ccccc2)C2(CCN(C(=O)c3ccccc3Br)CC2)C1=O)NCc1ccc2c(c1)OCO2	-16	-9
O=C(NCc1ccccc1)c1cc(C2COCCN2C(=O)C/C=C/c2ccccc2)on1 (stereo not drawn)	0	-2
CC(C)CCNC(=O)C(C1CCCC1)N1CCN(C(=O)c2ccc([N+](=O)[O-])cc2)CC1 (stereo not drawn)	-10	-4
O=C(NCCCCCCNC(=O)c1ccc(Cl)c([N+](=O)[O-])c1)c1ccc(Cl)c([N+](=O)[O-])c1	0	-2
Cc1ccc(-n2c(CCC(=O)NCc3cccc(Cl)c3)cc3c2-c2ccccc2OC3)c(F)c1	0	-3
O=C(c1ccccc1)c1ccc(N=Nc2c(-c3ccccc3)[nH]n(-c3ccc([N+](=O)[O-])cc3)c2=O)cc1	15	5
CCCc1nc(-c2nc(CC3CCN(C)CC3)no2)cs1	16	6
Cc1cccc(S(=O)(=O)NC(=O)C2(C)CCN2C(=O)Cc2ccc(Cl)cc2Cl)c1 (stereo not drawn)	5	2
COCc1cc(CN2CCN(c3nccc4occc34)CC2)ccc1OC	8	-7

The closing 2 entries of the section before come first, to join the parts.
SMILES	NPYLR7 agonist	NPYLR7 agonist max-min
Cc1cccc(S(=O)(=O)NC(=O)C2(C)CCN2C(=O)Cc2ccc(Cl)cc2Cl)c1 (stereo not drawn)	5	2
COCc1cc(CN2CCN(c3nccc4occc34)CC2)ccc1OC	8	-7
Cc1ccccc1N1C(=O)/C(=C/c2ccc(-c3cc(Cl)ccc3Cl)o2)C=C1c1ccccc1	14	10
CC(c1nc(-c2cccs2)no1)S(=O)Cc1ccc(F)cc1 (stereo not drawn)	11	8
c1cn(CC2CCCN(Cc3ccc(-c4ccn[nH]4)o3)C2)cn1 (stereo not drawn)	4&3	3&-4
CCN1C(=O)N(CCCc2cccnc2)C(=O)C12CCN(C1CCSC1)CC2 (stereo not drawn)	4	-4
COc1ccccc1N1CCN(CCn2c(=O)[nH]c3c([nH]c4ccccc43)c2=O)CC1	-10	-11
Cn1ccnc1CN1CCC(CCC(=O)NCc2cccc(C(F)(F)F)c2)CC1	15	7
O=C(C1CCCN(C2CCN(c3nc(CO)cs3)CC2)C1)N1CCOCC1 (stereo not drawn)	33	22
COc1cc(C2c3cccn3CCN2C(=O)NC(C)(C)C)cc(OC)c1OC (stereo not drawn)	8	3
COCCCNC(=O)c1cc(NC(=O)C(C)(C)CCl)ccc1N1CCN(c2ccccc2OC)CC1	20	19
CCN(CC)S(=O)(=O)c1ccc(C(=O)Oc2coc(CSc3nccn3C)cc2=O)cc1	-4	-7

Six records drawn at random from those above:
SMILES	NPYLR7 agonist	NPYLR7 agonist max-min
Cc1ccccc1N1C(=O)/C(=C/c2ccc(-c3cc(Cl)ccc3Cl)o2)C=C1c1ccccc1	14	10
CC(c1nc(-c2cccs2)no1)S(=O)Cc1ccc(F)cc1 (stereo not drawn)	11	8
c1cn(CC2CCCN(Cc3ccc(-c4ccn[nH]4)o3)C2)cn1 (stereo not drawn)	4&3	3&-4
O=C(C1CCCN(C2CCN(c3nc(CO)cs3)CC2)C1)N1CCOCC1 (stereo not drawn)	33	22
COc1cc(C2c3cccn3CCN2C(=O)NC(C)(C)C)cc(OC)c1OC (stereo not drawn)	8	3
CCN(CC)S(=O)(=O)c1ccc(C(=O)Oc2coc(CSc3nccn3C)cc2=O)cc1	-4	-7

(continued)
SMILES	NPYLR7 agonist	NPYLR7 agonist max-min
COc1ccc(-c2nc3cccc(C)n3c2Nc2c(C)cccc2C)cc1OC	-5	-2
O=S(=O)(Nc1ccc(-c2ccn[nH]2)cc1)c1ccc2c(c1)COC2	5	3
C=CCn1cc(CN2CCN(c3ncccc3C)CC2)c(C)n1	9	6
CNc1snc(C)c1C(=O)NNC(=O)c1ccc(Br)s1	-1	-4
Cc1cn2nc(NC3CCCCCCC3)sc2n1	-2	-3
C=CCNCC(=O)N(Cc1ccc(F)cc1)Cc1ccco1	20	26
O=C(c1ccccc1-c1ccccc1)N1C[C@@H]2[C@H](C1)[C@H]1CC[C@@H]2O1	7	2
CC(C)(C)NC(=O)N1CCC(CN2C(=O)CSC2c2ccc(F)cc2)CC1 (stereo not drawn)	27	39
CCC(C)N(Cc1cccc(OS(=O)(=O)c2cccc(C(F)(F)F)c2)c1)C(=O)c1ccc(Cl)cc1 (stereo not drawn)	-2	7
CCC(=O)c1ccc(OCC(=O)N2CCCC(C(=O)c3ccccn3)C2)cc1 (stereo not drawn)	-9	-16
O=C(CN1CCC(Cc2ccccc2)CC1)N1N=C(c2cccs2)CC1c1ccco1 (stereo not drawn)	-4	-5
Cc1cc(C)c(C)c(S(=O)(=O)Nc2ccc(F)cc2)c1C	1	2
CCn1c(SCC(=O)c2c(N)n(C)c(=O)n(C)c2=O)nc2sc(C)c(C)c2c1=O	6	11
Cc1cccc[n+]1CC(=O)C12CC3CC(CC(C3)C1)C2	-1	-3
COCCCNC(=O)c1ccccc1Nc1cccc(C(F)(F)F)c1	4	3
COc1cn(C)c(C(=O)Nc2ccc(C)c(F)c2)cc1=O	3	2
COCc1c(Br)c(C)nc(OCC(=O)N/N=C\c2ccc(-c3ccc(Cl)c(C(=O)O)c3)o2)c1C#N	6	7
CC1CCC(N(C)C(=O)C2=NN(C)C(=O)CC2)CC1 (stereo not drawn)	7	5
COCC(C)c1nc(-c2ccc(CNC(C)=O)s2)c(C)s1 (stereo not drawn)	1	-3
CCN1C(=S)NC(c2ccc(NC(=O)Nc3ccc(Cl)cc3Cl)cc2)C(C(=O)OC)=C1C (stereo not drawn)	23	35
COc1cccc(Cn2cccc2CN(Cc2ccccc2)C(=O)CN(CC(C)C)C(=O)Nc2ccccc2Br)c1	22	13
O=C1C(=Cc2ccc(Br)cc2F)SC(=S)N1CCN1CCOCC1	10	8
O=C(CNC(=O)c1ccc(Br)o1)NCC(F)(F)F	4	1
CCOc1ccc(-n2nnnc2CNC(=O)COc2ccccc2)cc1	1	1
CCCCCCNC(=O)Cc1csc(NC(=O)CN(C(=O)c2ccccc2C)C2CC2)n1	-12	-5
C=C(C)[C@@H]1CC=C(CN2CCC3(CC2)C(=O)N(CC)C(=O)N3CCC(C)C)CC1	8	-10
O=C(Cc1ccc(F)cc1)NNC(=O)c1ccc(=O)n(Cc2ccc(Cl)cc2)c1	-9	-14
CC1C(c2ccccc2)CCN1CC(=O)N1CCOC2CCCCC21 (stereo not drawn)	4	2
Cc1ccc(N=Cc2nc(-c3ccc(Br)cc3)oc2O)cc1Cl	-6	-10
O=C(CSc1nc(=O)n(Cc2ccco2)c2c1CCC2)N1CCCc2ccccc21	3	1

An excerpt of these results, in markdown.
| Compound | NPYLR7 agonist | NPYLR7 agonist max-min |
| --- | --- | --- |
| CCOc1ccc(-n2nnnc2CNC(=O)COc2ccccc2)cc1 | 1 | 1 |
| CCCCCCNC(=O)Cc1csc(NC(=O)CN(C(=O)c2ccccc2C)C2CC2)n1 | -12 | -5 |
| C=C(C)[C@@H]1CC=C(CN2CCC3(CC2)C(=O)N(CC)C(=O)N3CCC(C)C)CC1 | 8 | -10 |

Continuation:
SMILES	NPYLR7 agonist	NPYLR7 agonist max-min
Cc1noc(C)c1C(=O)Nc1ccc(OC(F)F)cc1	2	1
Cc1ccccc1Cn1c(C(=O)N2CCN(C(=O)c3ccc(F)cc3)C(C)C2)cc2ccsc21 (stereo not drawn)	-1	5
CNc1nc(C(=O)N2CCC3(CC2)C(=O)N(C)c2ccccc23)cs1	-3	-3
COCCNC(=O)C(C1CCCC1)N1CCN(C(=O)c2cccc(F)c2)CC1 (stereo not drawn)	-7	-6
COc1cc(C2C(C(=O)OC3CCCCC3)=C(C)NC3=C2C(=O)CC(c2ccccc2)C3)cc(Cl)c1O (stereo not drawn)	16	17
CCCCOc1ccc(S(=O)(=O)Nc2cc(Cl)ccc2C(=O)NCc2ccccc2)cc1	5	5
Cc1ccn2c(NC(=O)C3CC3)c(-c3cccc(F)c3)nc2c1	-14	-7
CCOC(=O)c1c(NC(=O)c2ccccc2)sc(C(=O)Nc2ccc(OC)cc2)c1C	-5	-10
COc1ccc(O)c(C(=O)c2c[nH]c(C(=O)N3CCCC3)c2)c1	-5	-5
CN1CCCC2(CC1)CCN(C(=O)CCc1ccccc1O)CC2	7	7

Full records, quoted from the list:
COc1ccc(O)c(C(=O)c2c[nH]c(C(=O)N3CCCC3)c2)c1 is listed as NPYLR7 agonist: -5; NPYLR7 agonist max-min: -5
Cc1noc(C)c1C(=O)Nc1ccc(OC(F)F)cc1 is listed as NPYLR7 agonist: 2; NPYLR7 agonist max-min: 1
COCCNC(=O)C(C1CCCC1)N1CCN(C(=O)c2cccc(F)c2)CC1 (stereo not drawn) is listed as NPYLR7 agonist: -7; NPYLR7 agonist max-min: -6

(list continues)
SMILES	NPYLR7 agonist	NPYLR7 agonist max-min
CCCCc1[nH]nc2ccnc(-c3ccc(CO)cc3)c12	2	2
COCCCn1cc(C(=O)N2CCNCC2)c2nn(-c3ccccc3)c(=O)c-2c1	-3	-3
CC12C(=O)N(c3ccc(C(=O)O)cc3)C(=O)C1C1C=CC2C1 (stereo not drawn)	0	-3
COCCCN(CC(=O)N(CCc1c[nH]c2ccccc12)Cc1ccc(C(F)(F)F)cc1)C(=O)c1ccc(OC)cc1	0	-8
CNCC(=O)NCCCc1nc2c(C)c(C)ccc2[nH]1	5	5
CC(C)c1nnc(NC(=O)COc2ccccc2)s1	1	1
COc1cc(C(=O)Nc2ccc3c(c2)CCCN3C(=O)c2ccco2)c([N+](=O)[O-])cc1OC	-4	3
CCCCCc1ccc(C(=O)N(CCCOC)CC(=O)N(Cc2ccc3c(c2)OCO3)Cc2cccs2)cc1	-10	-5
CCN1CC(c2nc3ccccc3n2Cc2ccc(C)cc2)CC1=O (stereo not drawn)	1	-1
N#Cc1ccc(-c2ccc(O)cc2)cc1	12	4
Cc1ncc2c(c1CNC(=O)Cc1cccs1)CCN(C(=O)CCc1ccccc1Cl)C2	22	14
CCNc1ncc(C(=O)N(Cc2c(C)nn(C)c2C)C(C)C)cn1	0	-3
Cc1cc(NC(=O)C2(C)CCN2C(C)C)c2ccccc2n1 (stereo not drawn)	-7	-7
Cc1ccc2c(c1)C1(CC(=O)N(C)C1=O)C(=O)N2CCCN1C(=O)c2ccccc2C1=O (stereo not drawn)	3	0
Cc1nn(-c2ccccc2)c2c1C(c1ccc3ccccc3c1)CC(=O)N2 (stereo not drawn)	0	32
COc1ncccc1C(=O)N(CC1CCN(C2Cc3ccccc3C2)CC1)CC1CCCO1 (stereo not drawn)	16	7
COCCN=c1scc(-c2ccc(OC(F)F)cc2)n1N=Cc1ccc(OC)cc1	8	6
COc1ccc(/C=C/c2nc3cc(C)ccc3s2)cc1O	-1	0
Cc1cc(S(=O)(=O)N2CCCC2C(N)=O)ccc1Br (stereo not drawn)	14	6
CCCc1nc(NC(C)Cc2cc(C)[nH]n2)c2cnn(C)c2n1 (stereo not drawn)	2	-1

An excerpt; rates above refer to the full screens.
